# From PubChem BioAssay
# VACV mCherry inh – qHTS for Stage-Specific Inhibitors of Vaccinia Orthopoxvirus: mCherry Reporter Primary qHTS | Vaccinia virus mCherry reporter infection, fluorescence; about a quarter of the inactives have no number | 0.63% of 310,000 active | Potency, µM (titrated, usually from 36.5 µM), inactives show top-dose activity change, negative = inhibition, most hits filed as inhibitors; active = well fitted inhibition curve with a large enough effect; inconclusive = small, poorly fitted or top-dose-only effect; inactive = no such curve, though single readings can be large or run the other way; tested in A549 cells; note: nearly all actives have a fitted effect of over 35% in size; inactives centre near -10
# Vaccinia Venus – qHTS for Stage-Specific Inhibitors of Vaccinia Orthopoxvirus: Venus Reporter Primary qHTS; Potency, µM (highest dose often 36.5 µM), for the others: at the highest dose activity change, negative = inhibition, usual class: inhibitors; 0.46% of 330,000 active; Vaccinia virus Venus reporter expression, fluorescence; active means well fitted inhibition curve with a large enough effect; inconclusive means small, poorly fitted or top-dose-only effect; inactive means no such curve, though single readings can be large or run the other way; tested in A549 cells; note: nearly all actives have a fitted effect of over 30% in size; inactives centre near -10
# An asterisk follows results filed as active; i = inactive; ? = inconclusive; · = not tested or not shown; & = joins results of further samples; [ ] = another dose, or the depositor's remark. % is set by controls: 0 for no effect and ±100 for the full control effect; potency is the fitted concentration of half-maximal effect.
# The line under a structure holds: VACV mCherry inh	Vaccinia Venus
> Cc1sc2nc(CN(CCc3ccccc3)C(=O)c3ccco3)[nH]c(=O)c2c1C
  -9%	-12%
> CCOC(=O)c1sc(NC(=O)c2ccc(C)s2)cc1C
  ?	-22%
> COc1ccc(CC(NC(C)=O)C(=O)NC2CCN(C(=O)Nc3ccccc3C)CC2)cc1OC (configuration not stated)
  -7%	2%
> CCCCNc1c(-c2ccc(F)cc2)nc2nc(C)cc(C)n12
  i	-5%
> Cc1nc2ccc(S(=O)(=O)N(CC(=O)Nc3cccc(Cl)c3)Cc3ccccc3)cc2s1
  -4%	-19%
> CCCCCN(C(=O)NC(=O)Nc1ccccc1C)S(=O)(=O)c1ccccc1
  -23%	-23%
> Cc1ccc(OCCn2c(=O)oc3ccc(C)cc32)cc1
  -28%	-8%
> COc1cc(/C=C(\C#N)C(=O)NCc2cccs2)ccc1O
  -24%	-23%
> COc1cc(S(=O)(=O)Nc2ccc3cn[nH]c3c2)ccc1Cl
  i	-12%
> CO[C@@]1(NC(=O)Cc2cccs2)C(=O)N2C(C(=O)O)=C(COC(N)=O)CS[C@@H]21
  i	-3%
> CC(=O)Nc1ccc(NC(=O)c2ccc(C)c(S(=O)(=O)Nc3cccc(C)c3)c2)cc1
  -17%	-23%
> C[C@H](NC(=O)[C@@H]1CCCN1C(=O)OC(C)(C)C)c1ccccc1
  i	-9%
> CC(C)(C)c1nc(SCC(=O)NC2CCCC2)c2ccccc2n1
  -13%	-12%
> COc1cc(OC)c(OC)cc1CNCCSc1nnnn1-c1ccccc1
  -1%	-8%
> NS(=O)(=O)c1ccc(CNC(=O)c2cc(=O)c3ccccc3o2)cc1
  i	-14%
> CC(=O)Nc1ccc(NC(=O)CSc2nnc(-c3ccco3)n2Cc2ccco2)cc1
  -30%	-5%
> COc1ccc(/C=C/C(=O)Nc2ccc(Cl)cc2Cl)cc1
  -9%	5%
> Cc1ccc(C(=O)C[n+]2cc(-c3ccc(C)cc3)n3c2CCCCC3)cc1
  -12%	-24%
> Cc1nn(C)c(C(=O)N/N=C/c2ccc(Br)cc2)c1Cl
  -19%	-11%
> OCC1CCN(Cc2cn(Cc3ccccc3)nc2-c2cc3ccccc3o2)CC1
  -18%	-8%
> CCOC(=O)c1ccccc1NC(=O)CN1C(=O)CCS(=O)(=O)c2ccccc21
  ·	-16%
> C/C(CCc1ccc2c(c1)OCO2)=N\N=C1\NC(=O)CC(C(=O)Nc2ccc(Cl)cc2)S1 (configuration not stated)
  -3%	-12%
> CSc1nc2c(sc3ccccc32)c(=O)n1Cc1ccc(C)cc1
  -1%	-12%
> CCOC(=O)c1nnn2c1nc(N1CCOCC1)c1ccccc12
  i	-7%
> CC(=O)Nc1ccc(NC(=O)c2c([N+](=O)[O-])cnn2C)cc1
  -8%	-17%
> O=C(O)CSc1ccccn1
  ·	-10%
> COc1ccc(N(Cc2cccs2)C(=O)c2ccco2)cc1
  -21%	-18%
> COc1ccc(CCN(C)C(=O)C2CCCN(Cc3ccc(OC)c(OC)c3)C2)cc1OC (configuration not stated)
  i	-1%
> O=C(CSc1n[nH]c(=O)n1C1CC1)Nc1ccc(F)c([N+](=O)[O-])c1
  -4%	-16%
> O=C(Nc1cccc(C(=O)N2CCOCC2)c1)c1cncc(Br)c1
  -14%	-9%

# Whole records as entered above.
# `CSc1nc2c(sc3ccccc32)c(=O)n1Cc1ccc(C)cc1` across the screens: VACV mCherry inh: -1%; Vaccinia Venus: -12%
# `O=C(Nc1cccc(C(=O)N2CCOCC2)c1)c1cncc(Br)c1` across the screens: VACV mCherry inh: -14%; Vaccinia Venus: -9%
# `CC(=O)Nc1ccc(NC(=O)c2c([N+](=O)[O-])cnn2C)cc1` across the screens: VACV mCherry inh: -8%; Vaccinia Venus: -17%

# Later entries:
# The line under a structure holds: VACV mCherry inh	Vaccinia Venus
> O=C(CCN1C(=O)NC2(CCCC2)C1=O)Nc1ccc(Sc2ccc(Br)cc2)cc1
  -16%	-20%
> COC(=O)[C@]1(CC(C)C)N[C@H](c2ccc(-c3ccc(F)cc3)cc2)[C@@H]2C(=O)N(C)C(=O)[C@@H]21
  -4%	-17%
> COC(=O)C1CCN(CC(=O)Nc2ccc(C(=O)Nc3ccccc3OC)cc2)CC1
  i	-17%
> CCOc1cc(CNCCc2c[nH]c3ccccc23)cc(Cl)c1OC
  -28%	-29%
> C[C@H](NC(=O)c1nc[nH]c1C(=O)N1CCN(C(=O)OC(C)(C)C)CC1)C(=O)OC(C)(C)C
  -38%	-14%
> CC(=O)Nc1ccc(S(=O)(=O)N2CCC(C(=O)c3ccc(Cl)cc3)CC2)cc1
  i	0%
> CCOc1ccc(NC(=O)Cn2nc(-c3ccccc3Cl)n(CC)c2=S)cc1
  ·	?
> CCOc1ccc(OCC)c(NC(=O)c2nnn(CC(=O)Nc3cc(Cl)ccc3OC)c2N)c1
  -22%	-20%
> O=C(COC(=O)Cc1cccc(C(F)(F)F)c1)NCC1CCCO1 (configuration not stated)
  -17%	-1%
> CCSC(=O)NC1CCCCC1
  -9%	-12%
> CC(=O)Nc1ccc(Nc2nc3ccccc3nc2NS(=O)(=O)c2ccc(Cl)c([N+](=O)[O-])c2)cc1
  i	1%
> CC(C)C[C@H]1CN(CCCC[C@@H]2CNC(=O)C(=O)N2CCc2ccccc2)C(=O)C(=O)N1CCc1ccc(O)cc1
  -10%	0%
> Cc1ccccc1-c1nc2sc3c(c2c(=O)o1)CCC3
  ·	-9%
> COc1ccccc1N1CCN(S(=O)(=O)c2c(C)sc3ncn(CC(=O)NCCN(C)C)c(=O)c23)CC1
  -9%&-5%	1%&-8%
> CC(C)NC(=O)C12CC3CC(C1)CC(n1cnc(Cl)n1)(C3)C2
  -13%	-6%
> O=C1CC(c2ccc(F)cc2)Sc2nc(-c3ccccc3)c(-c3ccccc3)n21 (configuration not stated)
  -14%	-12%
> CCN(CC(=O)Nc1ccc(OC)cc1)C(=O)CCc1nc2ccccc2c(=O)[nH]1
  -20%	-14%
> Cc1cccc(C)c1NC(=O)c1c(-c2ccccc2)noc1C
  -15%	-11%
> CCCCc1cn(C[C@H]2CC[C@@H]([C@@H]3CC[C@H](Cn4cc(CCCC)nn4)O3)O2)nn1
  -22%	-10%
> CCCC(NC(=O)CCc1c(C)c2cc3c4c(oc3c(C)c2oc1=O)CCCC4)C(=O)O (configuration not stated)
  i	-18%

# For reference, part of the list above:
# The line under a structure holds: VACV mCherry inh	Vaccinia Venus
> CC(=O)Nc1ccc(Nc2nc3ccccc3nc2NS(=O)(=O)c2ccc(Cl)c([N+](=O)[O-])c2)cc1
  i	1%
> CC(C)C[C@H]1CN(CCCC[C@@H]2CNC(=O)C(=O)N2CCc2ccccc2)C(=O)C(=O)N1CCc1ccc(O)cc1
  -10%	0%

# The listing continues.
# The line under a structure holds: VACV mCherry inh	Vaccinia Venus
> Cn1c(SCC(=O)N2CCN(c3ccccc3)CC2)nnc1-c1ccncc1
  ·	-8%
> CCN(CC)c1ccc(S(=O)(=O)N2CCCCC2)cc1NC(=O)C1CCC1
  i	-15%
> CN(C)c1ccc(-c2n[nH]c(=S)n2-c2ccccc2)cc1
  -18%	-19%
> CN(C)C(=O)c1ccc(-c2nc(NCc3ccccc3)c3ccccc3n2)cc1
  i	2%
> Cc1cc(C)c(S(=O)(=O)NCC(c2cccs2)S(=O)(=O)c2ccccc2)c(C)c1 (configuration not stated)
  -23%	-14%
> Cc1ccc(C)n1-n1c(C)nc2sc(-c3ccccc3)cc2c1=O
  ·	-21%
> CN(C)c1ccc(N=Nc2ccccc2C(=O)OCC(=O)NC2CCCC2)cc1
  -5%	-13%
> Cc1c(C(=O)N2CCCCC2)c(S(=O)(=O)NCc2ccc(N(C)C)cc2)c(C)n1C
  -3%&-7%	0%&-2%
> Nc1ncnc2c1nc(Br)n2C1OC(CO)C(O)C1O (configuration not stated)
  ?	?
> CCN=C1SC(CC(N)=O)C(=O)N1CC (configuration not stated)
  i	-4%

# (further entries)
structure,VACV mCherry inh,Vaccinia Venus
O=S(=O)(c1ccccc1)N1CCN(C2CCN(Cc3ccccc3)CC2)CC1,·,-26%
CC1(C)Cc2c(c(N3CCCCC3)[nH]c(=S)c2C#N)CS1,-6%,2%
O=C(OC(C(=O)NCc1ccc2c(c1)OCO2)c1ccc(Cl)cc1)c1ccco1 (configuration not stated),-14%,-9%
Cc1nc(C(N)=O)nc2ccccc12,19%,-1%
O=C(OCc1ccco1)c1ccc(S(=O)(=O)N2CCCCC2)cc1,·,-12%
Cc1coc2cc3oc(=O)c(CCC(=O)N4CCCCC4)c(C)c3cc12,-13%,3%
Cc1ccc(Nc2c(-c3ccc(C)s3)nc3ccccn23)cc1,-17%&5%,-13%&2%
CC(C)(C)c1ccc(-c2n[nH]c(=S)n2CC2CCCO2)cc1 (configuration not stated),-5%,-3%
CCOCCOC(NC(=O)c1ccccc1)(C(F)(F)F)C(F)(F)F,-16%,-11%
COc1ccc(OC)c(NC(=O)c2c(NCc3ccc(C)o3)sc3c2CCCCC3)c1,-10%[7.34 µM],-4%[7.34 µM]
Cc1nnc(N2CCN(C(=O)NC(C)C)CC2)c2nn(-c3ccccc3)c(C)c12,-9%,3%
Cc1ccc(Nc2nnc(SCc3cc(=O)n4cc(C)ccc4n3)s2)cc1,i,-10%
O=C(CC(NCc1cccnc1)C(=O)O)Nc1ccc(F)cc1 (configuration not stated),-5%[7.34 µM],-10%[7.34 µM]
Cc1ccc(S(C)(=O)=O)cc1C(=O)Nc1ccc(S(=O)(=O)Nc2nccs2)cc1,0%,-12%
CCOc1ccc(-n2c(N)c(-c3nc4ccccc4n3C)c3nc4ccccc4nc32)cc1,-11%,-8%
COC(=O)c1ccc(-c2nc3cc(N)ccc3o2)cc1,i,-8%
COc1ccc(NC(=O)CN(C)CC(=O)N2CCCCCC2)cc1,-11%,-10%
CC(C)c1ccc(C(C(=O)NC2CCCC2)N(C(=O)CNC(=O)c2ccco2)c2cccnc2)cc1 (configuration not stated),·,-10%
COc1cccc(-c2cnc(C(O)c3ccc(F)c(F)c3)[nH]2)c1 (configuration not stated),-3%,-7%
CC1=C(C(=O)Nc2ccccn2)C(c2ccc(N(C)C)cc2)n2ncnc2N1 (configuration not stated),?,-4%
CC1=C(C)CC(C(=O)c2ccc(C)cc2)C(C(=O)O)C1 (configuration not stated),-17%,-6%
CC(=O)N1CCC(N(CCN2CCOCC2)C(=S)Nc2ccc(C)c(C)c2)CC1,-29%,2%
CN(C)CCNC(=O)CNC(=S)N(CCCN1CCOCC1)Cc1cccs1,-6%,-6%
Cc1cccc(NS(=O)(=O)c2cccc(C(=O)NCCCN3CCCC3=O)c2)c1,-8%,-2%
CCOC(=O)c1c(C)[nH]c(C)c1C(=O)COC(=O)Cc1ccc(OC)c(OC)c1,-4%,-3%
O=C(C[C@@H]1C[C@@H]2c3cc(NC(=O)C4CCC4)ccc3O[C@@H]2[C@@H](CO)O1)NCc1ccc(Cl)cc1,i,-21%
COc1ccc(-c2cc(C(=O)N(C)Cc3ccccc3)c3ccccc3n2)cc1,i,-17%
Cc1oc2c(C)c3oc(=O)c(CCC(=O)N4CCCCC4)c(C)c3cc2c1C,-7%,-11%
O=c1c(OCc2ccccc2)cccn1Cc1ccccc1,i,-7%
CC(=O)c1cccc(CN2CCN(CCc3ccccc3)C(CCO)C2)c1 (configuration not stated),-6%,-10%
COCCCNC(=S)NC1CCCCC1,2%,-5%

# A second format for part of the listing above.
CC(=O)N1CCC(N(CCN2CCOCC2)C(=S)Nc2ccc(C)c(C)c2)CC1
- VACV mCherry inh = -29%
- Vaccinia Venus = 2%

CN(C)CCNC(=O)CNC(=S)N(CCCN1CCOCC1)Cc1cccs1
- VACV mCherry inh = -6%
- Vaccinia Venus = -6%

Cc1cccc(NS(=O)(=O)c2cccc(C(=O)NCCCN3CCCC3=O)c2)c1
- VACV mCherry inh = -8%
- Vaccinia Venus = -2%

CCOC(=O)c1c(C)[nH]c(C)c1C(=O)COC(=O)Cc1ccc(OC)c(OC)c1
- VACV mCherry inh = -4%
- Vaccinia Venus = -3%
